Six1-Eya2 blk: qHTS Assay for Inhibitors of the Six1/Eya2 Interaction; Homeobox protein SIX1 (Homo sapiens) + Protein phosphatase EYA2 (Homo sapiens), …; AlphaScreen GST-Six1/His-Eya2 binding, biochemical; stronger effect = lower value; control for the full effect not named in the record; activity change, % (test concentration not listed); 360,000 compounds, 0.56% hits; AID 651725, 2012; in the data active = activity change below about -65%; inconclusive = about -30% to -65%; inactive = above about -30%; note: % is set by controls: 0 for no effect and ±100 for the full control effect
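AlphaScreen luminescence read after one hour at 37 °C in darkness. Pin-transferred compounds met GST-Six1 and His-Eya2 protein (5X stock 250 nM/500 nM) plus glutathione donor and Ni-chelate acceptor beads (5X, 50 ug/mL).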
TRPML1 agonist: qHTS for Agonists of the Human Mucolipin Transient Receptor Potential 1 (TRPML1); Mucolipin-1 (Homo sapiens), Q9GZU1; TRPML1-expressing cells, Ca2+ dye fluorescence, FDSS; host cell line not named in the record; reference of the full effect not given here; activation, % (concentration not given with the values); 410,000 compounds, 0.12% hits; AID 624414, 2012; in the data active = activation above about 50%; inconclusive = about 30% to 50%; inactive = below about 30%; note: 0% is about no effect; the text of the record puts the active cut at 80%
Target sequence (Q9GZU1 whole entry, looked up): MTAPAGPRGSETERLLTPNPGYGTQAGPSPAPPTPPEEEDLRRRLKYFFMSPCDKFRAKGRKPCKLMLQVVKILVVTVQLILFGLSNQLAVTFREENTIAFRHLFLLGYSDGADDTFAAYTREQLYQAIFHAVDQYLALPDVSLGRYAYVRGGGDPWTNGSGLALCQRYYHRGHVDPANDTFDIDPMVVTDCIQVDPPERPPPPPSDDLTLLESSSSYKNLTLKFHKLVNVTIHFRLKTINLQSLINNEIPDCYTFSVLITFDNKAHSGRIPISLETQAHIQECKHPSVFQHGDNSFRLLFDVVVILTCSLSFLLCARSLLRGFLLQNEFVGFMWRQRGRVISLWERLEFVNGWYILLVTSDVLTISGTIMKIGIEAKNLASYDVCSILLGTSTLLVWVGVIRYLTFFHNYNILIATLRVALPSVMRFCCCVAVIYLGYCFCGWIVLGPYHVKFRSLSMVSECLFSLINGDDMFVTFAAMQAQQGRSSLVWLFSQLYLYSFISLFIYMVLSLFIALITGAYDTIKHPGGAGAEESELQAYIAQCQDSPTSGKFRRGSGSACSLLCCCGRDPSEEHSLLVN
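TRPML1-DL cells, Tet-induced overnight (~16 h, 37 degrees C), loaded 45-90 min at room temperature with Ca8 no-wash calcium dye plus quencher. FDSS fluorescence: 10 s baseline, compound pin-transfer, 110 s agonist read, then EC80 54-4 (4uM final) and 110 s antagonist read.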
TRPML1 inh: qHTS for Inhibitors of the Human Mucolipin Transient Receptor Potential 1 (TRPML1); TRPML1-inducible cells, Ca2+ dye fluorescence, FDSS; stronger effect = lower value; inhibition of EC80 agonist-evoked calcium signal; activity change, negative = inhibition, % (no concentration beside the values); 390,000 compounds, 0.02% hits; in the data active means activity change below about -50%; inconclusive means about -30% to -50%; inactive means above about -30%;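 note: stimulus is agonist 54-4 at its EC80 concentration; % is set by controls: 0 for no effect and ±100 for the full control effect; compound concentration not given in the record; the text of the record puts the active cut at -80%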
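Calcium fluorescence in TRPML1-DL cells induced overnight with Tet: a 110 s read after compound pin addition, then a 110 s antagonist read after challenge with 54-4 at 4 uM final (EC80).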
PINK1 expr mod: A Quantitative High throughput Screen to Identify Chemical Modulators of PINK1 Expression | PINK1 immunofluorescence, high-content cytometry, 24 h | Potency, µM (doses to about 76.6 µM), without a hit: at the top dose activation (PINK1 increase), hits mostly activators | 410,000 compounds, 0.2% hits | AID 624263, 2012; active = well fitted activation curve with a large enough effect; inconclusive = small, poorly fitted or top-dose-only effect; inactive = flat fitted curve, though single readings scatter; cell line not stated here;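 note: potency is the fitted concentration of half-maximal effect; % of control where 0% means no effect; nearly all actives have a fitted effect of over 65% in size; a mitochondrial uncoupler was the plate control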
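Cells are seeded, rested 12 hours, then given compound at five concentrations or DMSO for 24 hours. After fixation, blocking and antibody staining, PINK1 amount and mitochondrial localization are scored; CCCP serves as control.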
CtBP-E1A inh: qHTS Assay for Inhibitors of the CtBP/E1A Interaction | CtBP / adenovirus E1A interaction (AlphaScreen) | 340,000 compounds, 0.49% hits | AlphaScreen GST-E1A/His-CtBP binding, 1536-well; stronger effect = lower value; control for the full effect not named in the record | activity change, % (no concentration beside the values); in the data active means activity change below about -65%; inconclusive means about -30% to -65%; inactive means above about -30%; note: % is set by controls: 0 for no effect and ±100 for the full control effect
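In 5 uL wells, 23 nL compound meets equimolar GST-E1A and His-CtBP (5X stock 125 nM each) for 2 h, 37 °C. Beads (5X, 50 ug/mL) then 1 h, 37 °C, dark.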
D2 agonist: Beta-Arrestin HTS for Positive Allosteric Modulators of the Human D2 Dopamine Receptor: Agonists | D(2) dopamine receptor (Homo sapiens), P14416 | DiscoveRx PathHunter D2 beta-arrestin, luminescence, 90 min; 100% = 57 uM dopamine signal | activation, % (test concentration not listed) | 360,000 compounds, 0.084% hits | AID 624465, 2012; in the data active = activation above about 40%; inconclusive = about 15% to 40%; inactive = below about 15%; note: compound concentration not given in the record; the text of the record calls up to 30% inactive
Target sequence (P14416 whole entry, looked up): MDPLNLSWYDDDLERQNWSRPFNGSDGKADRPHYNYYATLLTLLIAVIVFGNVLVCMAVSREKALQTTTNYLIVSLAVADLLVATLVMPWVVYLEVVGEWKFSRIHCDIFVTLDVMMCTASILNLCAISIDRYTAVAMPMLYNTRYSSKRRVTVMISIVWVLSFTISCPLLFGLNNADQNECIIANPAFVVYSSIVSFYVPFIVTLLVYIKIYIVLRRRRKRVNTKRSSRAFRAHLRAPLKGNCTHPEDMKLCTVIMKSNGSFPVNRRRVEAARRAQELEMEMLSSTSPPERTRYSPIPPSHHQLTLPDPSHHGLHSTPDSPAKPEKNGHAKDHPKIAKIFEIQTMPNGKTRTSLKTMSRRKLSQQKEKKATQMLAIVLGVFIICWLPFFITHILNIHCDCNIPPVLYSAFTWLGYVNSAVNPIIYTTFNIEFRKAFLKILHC
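Agonist mode: compounds alone added to overnight-plated D2 PathHunter cells for 90 min at 37 C, with 57 uM final dopamine (EC100) defining full response. Beta-arrestin recruitment detected by chemiluminescent reagent, read after 1 h at ambient temperature.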
* = called active by the depositor; u = inconclusive; x = no result given; & = joins results of further samples; [ ] = another dose, or the depositor's remark. No enrichment for hits; 1% or so of the library scored in one or more.

SMILES	Six1-Eya2 blk	TRPML1 agonist	TRPML1 inh	PINK1 expr mod	CtBP-E1A inh	D2 agonist
CCCc1cc(=O)c2c(O)cccc2o1	-18.2	-0.5	1.4	4.2%	7.1	1.3
CCCC(=O)N(CCN1CCOCC1)c1nc2c(C)ccc(C)c2s1	-3.0	-1.5	17.1	1.3%	-2.6	7.1
CC(=O)Nc1nc2ccccc2n1Cc1ccccc1C	5.9	-0.6	5.3	4.2%	-0.7	-1.2
COc1ccc(-c2csc(NCCc3nc4cc(Cl)c(Cl)cc4n3CCCO)n2)cc1	-9.2	0.0	6.0	0.0%	-16.3	-1.0
COc1ccccc1N1CCN(Cc2cc(Br)c(O)c3ncccc23)CC1	-91.7*	0.3	29.2	u	-84.6*	-7.5
Cc1cccc(N2CCN(S(=O)(=O)c3ccc4c(c3)CC(C)N4C(=O)C3CC3)CC2)c1C (stereo not drawn)	-11.9	0.9	3.5	1.9%	x	-0.5
COc1ccc(-c2cc(C(=O)NCc3cn(C)nc3C)c3ccccc3n2)cc1OC	6.9	-0.2	-6.2	2.8%	1.4	-0.8
Cn1ccc2cc(S(=O)(=O)N3CCN(C(=O)Nc4cccc(F)c4)CC3)ccc21	x	1.6	-3.1	0.8%	x	x
COc1ccc(Br)c(C=O)c1OS(=O)(=O)c1ccc(C)cc1	-1.5	8.4	55.9	-0.6%	-14.1	-13.2
O=C(/C=C\c1cn(-c2ccccc2)nc1-c1cccs1)N1CCOCC1	3.3	1.8	42.1	-2.7%	-9.4	0.0
Cc1ccc(C)c(N2CCN(C(=O)c3ccc(Cn4c(=O)[nH]c5ccccc5c4=O)cc3)CC2)c1	-7.1	-0.5	0.9	-2.1%	-6.1	-4.6
Cc1cccc2c(C(=O)N3CCN(c4ccccc4)CC3)cc(-c3ccncc3)nc12	-7.5	-0.5	-8.7	0.4%	-12.2	-2.6
COCCN1C(=O)c2ccccc2C(C(=O)NCc2ccco2)C1c1c[nH]c2ccccc12 (stereo not drawn)	-5.0	0.1	-20.0	-0.2%	-1.1	-4.6
COc1ccc(S(=O)(=O)NC(C(C)C)C(C)C)cc1OC	0.2	-0.4	-6.9	-2.3%	1.2	-1.0
Cn1c(Cn2c(=O)sc3ccccc32)nnc1SCC(=O)NCc1ccco1	-0.7	0.0	-8.5	0.4%	2.5	-7.4
Cn1c(=O)n(C)c2cc(N3CCOCC3)c(NC(=O)c3ccccc3Br)cc21	x	0.8	0.2	-1.4%	x	x
O=C(NCC1CCCO1)c1ccc(NC(=O)C2C3C=CC(C3)C2C(=O)O)cc1 (stereo not drawn)	5.9	0.0	8.4	-0.7%	0.3	-3.4
CCNc1c(NS(=O)(=O)c2ccc([N+](=O)[O-])cc2)c(=O)oc2ccccc12	0.8	-0.5	11.1	8.8%	-2.6	-0.4
COCCNC(=O)CN(C(=O)CCC(=O)Nc1nccs1)c1ccc2c(c1)OCO2	-1.0	1.2	5.1	1.7%	1.0	-1.4
CCSc1ncc(Cl)c(C(=O)Nc2nc3ccc(OC)cc3s2)n1	x	0.8	-11.6	-0.1%	x	x
COc1ccc(-n2cc(-c3ccccc3)c3c(NCCc4ccc(OC)c(OC)c4)ncnc32)cc1	x	0.8	-9.5	0.5%	x	x
O=C(NCCc1ccccc1)c1c(F)c(F)c(F)c(F)c1F	1.9	-0.3	52.2	-0.7%	1.2	2.3
CC1(C)CC(=O)c2cnc(NCc3ccco3)nc2C1	16.1	0.1	21.3	-0.8%	10.6	-2.4
O=C(Nc1ccccc1C(=O)NC1CC1)c1ccccc1	9.1	0.4	10.7	-0.9%	-8.8	-2.1
CC(C)n1c(SCC(=O)Nc2ccc(F)cc2)nnc1C1CC1	2.8	0.7	-12.0	-0.5%	-2.3	4.2
O=C(NCCc1cccc(Cl)c1)c1cccc(-n2cnnn2)c1	0.1	0.4	12.1	-0.3%	5.4	1.2
CS(=O)(=O)c1ccc(Cl)c(NC(=O)C2CCCN(C(=O)c3ccc(Cl)cc3)C2)c1 (stereo not drawn)	5.4	-0.9	-12.2	-0.1%	-3.0	-3.7
O=[N+]([O-])c1cccc(/C=N/N2CCN(Cc3ccccc3)CC2)c1	-22.5	-0.7	-6.0	-1.6%	-22.1	-2.4
CCCc1nn2c(=O)cc(CSCC(=O)Nc3nnc(C(C)C)s3)nc2s1	-0.6	-0.5	-1.2	-0.7%	0.0	-5.6
O=C(COC(=O)c1ccc2[nH]c3c(c2c1)CCCC3)Nc1ccccc1Cl	1.9	0.4	27.7	8.5%	-0.4	-2.2
O=C1CN(C(=O)CN2CCOCC2)C(c2ccccc2)c2cc(Br)ccc2N1 (stereo not drawn)	4.6	-0.7	-7.2	0.5%	4.2	-3.1
CCCn1c(N)cc(=O)n(CCC)c1=O	-4.2	1.7	24.0	4.3%	16.3	-4.0
CCN(CC)C(=O)C1=C(C)N(CCC2=CCCCC2)C(=O)C(CC(=O)NC2CCCC2)C1 (stereo not drawn)	2.6	-0.5	5.6	1.6%	1.4	-8.1
CCc1ccccc1NC(=O)Nc1ccc(F)cc1F	2.3	0.5	-12.6	4.8%	3.6	-7.7
CCOC(=O)[C@]12CCCC=C1N(Cc1ccco1)C(=O)[C@H](CC(=O)NCc1cccc(C(F)(F)F)c1)C2	2.8	-0.7	x	-0.3%	-2.4	x
O=C(NC1CCCC1)c1ccc2c(c1)N(Cc1c(F)cccc1Cl)C(=O)c1ccccc1S2	x	-0.1	42.7	-0.1%	x	x
O=C(CSc1ncc(C(=O)O)n1-c1ccc(F)cc1)NCc1ccc2c(c1)OCO2	3.0	0.0	-22.5	3.3%	14.0	4.5
CCC(=O)NC1(Cc2ccc(O)cc2)CCCCC1	0.4	1.7	-3.5	3.1%	4.8	5.9
Cc1cc(C(=O)N2CCC2(C)C(=O)Nc2cc(C(C)(C)C)nn2C)nn1C (stereo not drawn)	1.5	-0.5	x	1.3%	7.3	7.0
CC(=O)Nc1ccc(S(=O)(=O)NCCc2cc3c(C)ccc(C)c3[nH]c2=O)cc1	-7.9	-0.7	21.2	1.2%	-2.6	-2.7
COc1cc(Cl)ccc1OCc1cc(C(=O)N(C)C2CC(C)(C)NC(C)(C)C2)no1	3.9	0.3	31.4	-1.2%	-23.6	-1.5
CCCC(=O)NCCCc1nc2ccccc2[nH]1	8.3	-0.4	1.3	0.7%	-6.7	-4.1
Cc1ccc(S(=O)(=O)n2nc(-n3c(C)ccc3C)c3c(F)cccc32)c2ccccc12	-6.8	0.4	20.1	2.1%	3.0	-4.2
Cc1ccc(NC(=O)CSCC(=O)Nc2nnc(C3CC3)s2)cc1	4.6	1.3	-16.7	-1.0%	1.0	-3.5
CC1CN(c2ccccc2)CCN1C(=O)c1cc(COc2c(F)cccc2F)on1 (stereo not drawn)	-3.4	-0.4	22.5	0.1%	1.7	-4.0
CCn1c(C)nnc1SCC(=O)Nc1ccccc1Cl	8.5	-0.9	11.4	-0.9%	x	5.1
Cc1sc2ncn(CC(=O)NC3CCCCC3)c(=O)c2c1C	10.3	-0.4	-5.9	1.6%	x	-3.1
O=C(NCCC1=CCCCC1)C1CCN(S(=O)(=O)c2ccccc2)CC1	0.1	-0.7	2.6	0.0%	1.5	-0.2

Sorted by count of non-hydrogen atoms (smallest number first): part of the list above
SMILES	Six1-Eya2 blk	TRPML1 agonist	TRPML1 inh	PINK1 expr mod	CtBP-E1A inh	D2 agonist
CCC(=O)NC1(Cc2ccc(O)cc2)CCCCC1	0.4	1.7	-3.5	3.1%	4.8	5.9
CCn1c(C)nnc1SCC(=O)Nc1ccccc1Cl	8.5	-0.9	11.4	-0.9%	x	5.1
Cc1sc2ncn(CC(=O)NC3CCCCC3)c(=O)c2c1C	10.3	-0.4	-5.9	1.6%	x	-3.1
Cc1cc(C(=O)N2CCC2(C)C(=O)Nc2cc(C(C)(C)C)nn2C)nn1C (stereo not drawn)	1.5	-0.5	x	1.3%	7.3	7.0
O=C(CSc1ncc(C(=O)O)n1-c1ccc(F)cc1)NCc1ccc2c(c1)OCO2	3.0	0.0	-22.5	3.3%	14.0	4.5

Additional entries:
SMILES	Six1-Eya2 blk	TRPML1 agonist	TRPML1 inh	PINK1 expr mod	CtBP-E1A inh	D2 agonist
COc1ccc(NC(=O)C2CCCN(S(=O)(=O)c3ccc4[nH]c(=O)ccc4c3)C2)cc1OC (stereo not drawn)	0.1	-0.2&-0.7	-11.1&-7.4	0.2%&-0.4%	0.6	-2.0
COC(=O)c1ccc(COc2ccc(/C=C/C(=O)c3ccc(OC)c(CSCC(=O)O)c3)cc2OC)cc1	-0.5	-0.7	50.4	-0.8%	-2.4	-3.1
COc1ccccc1-c1nn(-c2ccccc2)cc1C(=O)N1CCc2ccccc2C1	-1.0	0.7	38.5	-1.8%	x	-4.2
O=C(CN1CCOCC1)N(c1ccccc1)c1ccc2ccccc2c1	1.1	-0.1	16.2	-1.4%	-0.8	-3.9
O=C(CCN1C(=O)c2ccccc2S1(=O)=O)Nc1ccccc1F	-7.5	1.3	-13.4	-1.1%	-12.4	-1.2
Cc1nc2ccccc2c(=O)n1NC(=O)Cc1ccc(Br)cc1	0.2	-0.4	-9.5	2.1%[38.3 µM]	3.9	-2.2
O=[N+]([O-])c1ccc(-n2nnnc2-c2ccccc2)cc1	-0.6	0.9	10.7	0.5%	x	5.8
CC1CCCN(C/C(O)=C(\C#N)c2nc3ccccc3[nH]2)C1 (stereo not drawn)	0.0	-0.4	-9.8	-0.2%	-9.6	-1.2
Cc1cc(C)cc(NC(=O)CCCN2C(=O)COc3ccc(C)cc32)c1	x	-0.3	-27.0	1.1%	x	x
CCn1c(SCC(=O)NC2CCCCC2)nc2c(c1=O)SCC2	-1.2	2.4	-1.0	-2.3%	-6.5	-6.9
O=C(CCC1N=C2c3ccccc3N=C(SCc3ccc(F)cc3)N2C1=O)NC1CCCCC1 (stereo not drawn)	x	1.1	9.5	0.3%	x	x

Two of these compounds, set out differently:
Results follow in this order: Six1-Eya2 blk, TRPML1 agonist, TRPML1 inh, PINK1 expr mod, CtBP-E1A inh, D2 agonist
COC(=O)c1ccc(COc2ccc(/C=C/C(=O)c3ccc(OC)c(CSCC(=O)O)c3)cc2OC)cc1
→ -0.5, -0.7, 50.4, -0.8%, -2.4, -3.1
COc1ccccc1-c1nn(-c2ccccc2)cc1C(=O)N1CCc2ccccc2C1
→ -1.0, 0.7, 38.5, -1.8%, x, -4.2

Bioassay records as filed in PubChem BioAssay.
